Mtb growth: Confirmatory growth inhibition assay against Mycobacterium tuberculosis H37Rv, potency (AID 1949) | most inactive calls were filed without a number and no value below 0 was filed | 100,000 tested, 1.6% active | inhibition, % at 10 µg/mL; hits with a dose series show IC50 in µg/mL;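 active means confirmed in a dose series; inconclusive means about 50% or more but not retested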;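 further: bacteria grown 7 days with compound before Alamar blue readout; 0% = untreated bacteria and 100% = reference antibiotic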
Numbers without * were called inactive; i = inactive; u = inconclusive. Some of the compounds tested; rates above refer to the full screens.

The first 4 compounds, to show the layout:
SMILES	Mtb growth
COc1ccc(NC(=O)COc2ccccc2Cl)c(OC)c1	i
Cc1ccc(-c2ccc(CCC(=O)O)n2NC(N)=S)cc1	i
CCc1ccc(-n2c(C)nnc2SCC(=O)Nc2ccc(OC)cc2)cc1	i
O=C(Nc1cc(Cl)cc(Cl)c1)C1CC1	i

All compounds of this part, from the first entry:
SMILES	Mtb growth
COc1ccc(NC(=O)COc2ccccc2Cl)c(OC)c1	i
Cc1ccc(-c2ccc(CCC(=O)O)n2NC(N)=S)cc1	i
CCc1ccc(-n2c(C)nnc2SCC(=O)Nc2ccc(OC)cc2)cc1	i
O=C(Nc1cc(Cl)cc(Cl)c1)C1CC1	i
CCOc1ccc(NC(=O)NC(=O)C(F)(F)F)cc1	i
CCc1c(C)sc(NC(=O)C(C)(C)C)c1C(=O)OC	2.3%
COc1ccc(Cl)cc1C(=O)Nc1ccc(Cl)cc1C(F)(F)F	i
Cc1ccc(-n2ncc3c(NCc4ccccc4Cl)ncnc32)c(C)c1	8.2%
COCC(=O)Nc1cc(C)c(Cl)cc1OC	i
CCc1ccc(-c2csc(Nc3cccc(C)n3)n2)cc1	38.3%
Cc1cccc(NC(=O)CSc2nc(N)c(C#N)c(-c3ccc(F)cc3)c2C#N)c1	i
O=C(COc1ccccc1[N+](=O)[O-])Nc1ccc2oc(-c3cccc(Cl)c3Cl)nc2c1	0.5%

As entered above:
`Cc1ccc(-n2ncc3c(NCc4ccccc4Cl)ncnc32)c(C)c1` in Mtb growth = 8.2%
`CCc1c(C)sc(NC(=O)C(C)(C)C)c1C(=O)OC` in Mtb growth = 2.3%

(list continues)
SMILES	Mtb growth
CCSc1nc2ccccc2n1CC(=O)OC	27.2%
Cc1ccc(NC(=O)CSC2=C(C#N)C(c3ccc(OCc4ccccc4)cc3)CC(=O)N2)cc1Cl (stereo not given)	i
CC1CC(C)(C)Cc2c1sc1[nH]c(=S)n(-c3ccccc3)c(=O)c21 (stereo not given)	6.2%
CCc1cccc(CC)c1NC(=O)CSc1nc2ccccc2s1	i
COc1ccccc1CC(=O)Nc1cccc(F)c1	0.1%
Cc1ccc(SC(C)C(=O)NC(C)c2ccccc2)cc1 (stereo not given)	i
Cc1ccccc1-c1n[nH]c(=S)n1C	i
CCN(CC)C(=O)CSc1nc2sc3c(c2c(=O)n1-c1ccc(OC)cc1)CCCC3	3.6%
c1ccc(-c2ccccc2OCCCN2CCOCC2)cc1	i
COc1ccc(N2C(=O)CC(NC34CC5CC(CC(C5)C3)C4)C2=O)cc1 (stereo not given)	i
CCC(C)NCCOc1c(Cl)cc(Cl)cc1Cl (stereo not given)	i
CCOC(=O)N1CCN(C(=O)C2CCCN(S(=O)(=O)c3ccc(F)cc3)C2)CC1 (stereo not given)	i
O=S(=O)(Nc1ccc(S(=O)(=O)N2CCCCC2)cc1)c1ccc(Br)s1	i
COc1ccc(CNC(=O)CCN2C(=O)c3ccccc3C2=O)cc1	i
COCCN1C(=O)C(O)=C(C(=O)c2cc3cccc(OC)c3o2)C1c1ccc(Cl)cc1 (stereo not given)	i
CCC(SCC(=O)Nc1ccc2ccccc2c1)C(=O)Nc1ccc(C(C)=O)cc1 (stereo not given)	i
Cc1cc(Cl)ccc1NC(=O)CCCN1C(=O)c2ccccc2C1=O	i
O=C(Cc1cccs1)NC1CCCCCCCCCCC1	i
Cc1cc(OCCCN2CCN(C)CC2)ccc1C(C)C	1.1%
N/C(Cc1ccc(Cl)c(Cl)c1)=N\OC(=O)COc1ccccc1	3.8%
CCSc1nnc(NC(=O)c2ccc([N+](=O)[O-])cc2Cl)s1	3.4%
C=CCn1c(Cc2ccc(OC)cc2)nnc1SCC(=O)Nc1cc(Cl)c(Cl)cc1Cl	24.7%
Cc1ccc(-n2c(SCC(=O)c3ccc4c(c3)OCO4)nnc2-c2ccncc2)cc1	i
O=S(=O)(NNC(=S)Nc1cccc(Cl)c1Cl)c1ccc(F)cc1	i
C=CCc1ccccc1OCCNC(C)CC (stereo not given)	i
O=C(Nc1sc2c(c1C(=O)NCC1CCCO1)CCCC2)c1ccc(Cl)cc1Cl (stereo not given)	i
CCc1nc2ccccc2n1CC(COc1ccc(Br)cc1)OC(C)=O (stereo not given)	31.4%
O=C(c1c(F)c(F)c(F)c(F)c1F)N1CCN(Cc2ccc3c(c2)OCO3)CC1	i
CS(=O)(=O)N(CC(=O)N1CCC(Cc2ccccc2)CC1)c1ccc(Cl)c(C(F)(F)F)c1	i
NS(=O)(=O)c1ccc(NC(=S)Nc2cc(OCC(F)(F)F)cc(OCC(F)(F)C(F)F)c2)cc1	i
COc1cc(CNCCCN2CCOCC2)ccc1OC1CCCC1	i
Cc1nn(C)cc1CN(C)S(=O)(=O)c1cccc([N+](=O)[O-])c1	i
CCOc1cc(C2NC(=O)N(C)C(C)=C2C(=O)OC)cc(Cl)c1OCC (stereo not given)	i
O=C(NC(=S)Nc1ccc2c3c(cccc13)CC2)c1ccc(Cl)c(Cl)c1	i
CCOc1ccc(C(=S)N2CCN(CCO)CC2)cc1	i
CC(C)c1ccc(OCC(=O)O/N=C(\N)c2ccc([N+](=O)[O-])cc2)c(Br)c1	1.8%
COc1ccc(NC(=O)CC(C(=O)O)N2CCOCC2)cc1 (stereo not given)	i
O=C(c1cc(=O)n2c(nc3ccccc32)s1)N1CCN(c2ccccc2)CC1	i
CCOc1ccc(N(CC(=O)Nc2cccc(N(C)S(C)(=O)=O)c2)S(C)(=O)=O)cc1	i
CC(C)COC(=O)Nc1nnc(SCc2ccccc2F)s1	1.3%
COc1ccc(NC(=S)Nc2ccc(C)cc2Br)cc1OC	i
Cc1cc(OCC(=O)Nc2ccccc2C(=O)N2CCCC2)c(C)cc1Br	i
Cn1c(=O)c2c(ncn2CC(O)CNc2ccc(Br)cc2)n(C)c1=O (stereo not given)	i
S=C(NCCCN1CCOCC1)NCCc1ccccc1	i
COc1ccc(-c2csc(NC(=O)c3ccncc3)n2)cc1	i
Cc1cc(=O)oc2cc(NC(=S)N3CCC4(CC3)OCCO4)ccc12	i
Cc1cc(C)cc(C(=O)Nc2cccc(NC(=O)c3ccccc3C)c2)c1	i
NC(=O)c1c(NC(=O)Cc2ccc([N+](=O)[O-])cc2)sc2c1CCCC2	i
COc1ccc2c(Cl)c(C(=O)NC(=S)Nc3ccc(S(=O)(=O)NC4CCCCC4)cc3)sc2c1	i
N#Cc1nc(-c2ccccc2)oc1NCCCn1ccnc1	i
O=Cc1ccc(OCC(=O)Nc2ccc(F)cc2)c(Cl)c1	i
C=CCn1c(SCC(=O)c2ccc3c(c2)OCCO3)nc2sc(C)c(C)c2c1=O	i
C1=CC2CC1CC2CN1CCN(Cc2cccnc2)CC1 (stereo not given)	i
O=C(NCc1ccccc1)c1ccccc1NC(=O)C1COc2ccccc2O1 (stereo not given)	i
CCOc1ccc(S(=O)(=O)Nc2ccccc2C(=O)N2CCCC2)cc1	4.7%
Cc1cc(C)cc(NC2=NS(=O)(=O)c3ccccc32)c1	i
O=C(NC1CCCCC1)C1CC2c3ccccc3C1c1ccccc12 (stereo not given)	i
CCOC(=O)c1c(-c2cc(C)c(C)c(C)c2)csc1NC(=O)C1CCCO1 (stereo not given)	0.5%
O=S(=O)(c1ccc(Cl)cc1)N1CCN(C(=S)NCc2ccc(Cl)cc2)CC1	i
Cc1c(NC(=O)c2ccc(COc3ccc4c(c3)CCC4)cc2)c(=O)n(-c2ccccc2)n1C	2.9%

Following part:
SMILES	Mtb growth
COc1ccc(N2C(=O)N(c3cccc(Cl)c3)C3CS(=O)(=O)CC32)cc1 (stereo not given)	i
COc1ccc(NC(=O)c2ccco2)c(NC(=O)CSCc2ccc(Cl)cc2Cl)c1	i
Cc1ccc(C(=O)Nc2ccccc2C(=O)N2CCN(c3ccccc3)CC2)cc1S(=O)(=O)N1CCCCC1	i
CCn1c(O)c2ccc(C(=O)N=NC(=O)c3ccccc3)cc2c1O	i
O=C(NC(=S)Nc1ccc(Cl)cc1Cl)C1CCC1	8.8%
COc1cccc(C(=O)O/N=C(\N)c2ccc(Br)cc2)c1OC	7.3%
O=C(NCc1ccc2c(c1)OCO2)c1cccs1	i
O=C(O)c1ccc2c(c1)C1C=CCC1C(c1ccccc1)N2 (stereo not given)	i
C=C(C)COc1cc(O)c2c(=O)cc(-c3ccccc3)oc2c1	i
COc1cc(I)cc(C=O)c1OC	i
O=C(CSCc1c(Cl)cccc1Cl)N1CCCCC1	i
O=C1CC(c2ccccc2Br)c2cc3c(cc2N1)OCCO3 (stereo not given)	i
Cc1cc(S(=O)(=O)N2CCCC2)ccc1OCC(=O)Nc1ccc2c(c1)OCO2	7.5%
CC(=O)Nc1c(C(=O)N2CCOCC2)cnn1-c1ccc(C)c(C)c1	i
COc1cc2c(cc1NC(=O)c1cc3n(n1)C(C(F)(F)F)CC(c1ccco1)N3)oc1ccccc12 (stereo not given)	i
CC(NC(=O)c1ccccc1NS(=O)(=O)c1cccs1)c1ccccc1 (stereo not given)	i
Cc1ccc(NC(=O)COc2ccc(S(=O)(=O)NC(C)C)cc2)cc1Cl	i
CCOC(=O)c1cc2c(=O)n3ccccc3nc2n(CC2CCCO2)c1=NC(=O)c1ccc(Br)o1 (stereo not given)	i
COc1cc(C)c(S(=O)(=O)Nc2ccccn2)cc1C	i
CCOC(=O)C1=C(C)NC2=C(C(=O)CC(c3ccco3)C2)C1c1ccc(OC)c(OC)c1 (stereo not given)	i
CN(C)C12CC3CC(CC(C(=O)O)(C3)C1)C2	i
CCOC(=O)N1CCN(CCC(=O)Nc2ccc(F)c(F)c2)CC1	i
Cc1ccc(-n2c3c(cc(C(=O)Nc4cccc(Cl)c4)c2=O)C(=O)CCC3)cc1	i
COc1cc(Cl)c(C)cc1NC(=O)CSC	i

Four entries picked at random from the list so far, as already listed:
SMILES	Mtb growth
COc1cc(Cl)c(C)cc1NC(=O)CSC	i
CCOC(=O)C1=C(C)NC2=C(C(=O)CC(c3ccco3)C2)C1c1ccc(OC)c(OC)c1 (stereo not given)	i
CC(=O)Nc1c(C(=O)N2CCOCC2)cnn1-c1ccc(C)c(C)c1	i
CC(NC(=O)c1ccccc1NS(=O)(=O)c1cccs1)c1ccccc1 (stereo not given)	i

Continuation.
SMILES	Mtb growth
Cc1ccc(C)c(NC(=S)N2CCN(c3ccccn3)CC2)c1	i
Cc1c(NC(=O)Cn2nc(C(F)(F)F)c3c2CCC3)c(=O)n(-c2ccccc2)n1C	i
COc1ccc(CNC(=O)CN(Cc2ccc(F)cc2)S(=O)(=O)c2ccccc2)cc1	i
COc1ccc(-c2nn(-c3ccccc3)cc2C2NC(=O)NC(C)=C2C(=O)OCc2ccccc2)cc1 (stereo not given)	20.1%
N#C/C(=C1/CCCCCN1)c1nnc2n1CCCCC2	2.7%
Cc1ccc(S(=O)(=O)NCCCOC(C)C)cc1	9.2%
O=c1cc(CSc2nnnn2-c2ccccc2)[nH]c(=S)[nH]1	i
COc1ccc2oc(-c3ccccc3)c(C(=O)Nc3nccs3)c2c1	u
Cc1cc(C)nc(SCC(=O)Nc2sc3c(c2C(=O)NCc2ccccc2)CCCC3)n1	i
CC(C)c1nnc(NC(=O)CSc2nc3ccccc3[nH]2)s1	i
CC1CCc2c(sc(NC(=O)C34CC5CC(CC(C5)C3)C4)c2C(N)=O)C1 (stereo not given)	16.6%
CCn1cc(C(=O)O)c(=O)c2cc(F)c(N(C)CCc3ccc(OC)c(OC)c3)cc21	i

Part of the list above, as labelled records:
COc1ccccc1CC(=O)Nc1cccc(F)c1
  Mtb growth = 0.1%

Cc1ccc(SC(C)C(=O)NC(C)c2ccccc2)cc1 (stereo not given)
  Mtb growth = i

Next part:
SMILES	Mtb growth
CCOC(=O)c1c(C)nc2cc(C(=O)Nc3ccc(F)cc3F)nn2c1C	1.7%
CC(SCc1ccccc1)C(=O)Nc1ccccc1C(C)C (stereo not given)	i
O=C(Nc1ccc(I)cc1C(=O)NCC1CCCO1)c1cccnc1 (stereo not given)	i
COc1ccc(NC(=O)NC(C)C2CCCO2)cc1OC (stereo not given)	i
COC(=O)c1ccc(Cn2c([N+](=O)[O-])cnc2C)cc1	i
C=C(C)Cc1c(C)nc(SCCC(C)C)[nH]c1=O	0.4%
O=C(O)C1C2CCC(C2)C1C(=O)Nc1ccc(F)c(Cl)c1 (stereo not given)	i
COc1ccccc1NC(=O)c1c(NC(=O)c2cccnc2)sc2c1CCC(C)C2 (stereo not given)	i
CCc1cc(=O)oc2c(C)c3occ(-c4cccc(OC)c4)c3cc12	i
Cc1cc(Br)cc(C)c1OCC(=O)NCCc1ccccc1	i
COc1cccc(OCCOc2ccc(Cl)cc2)c1	2.1%
COc1ccc(-c2cn(S(=O)(=O)c3ccccc3OC)nc2N)cc1OC	i
COc1ccccc1Oc1ccc(NC(=O)c2ccccc2)cc1	0.8%
O=C(Nc1ccc(F)cc1F)C1CCN(C(=O)c2ccc([N+](=O)[O-])cc2)CC1	i
CN(C)c1nc(N)nc(CSc2nnnn2-c2ccc(C(=O)O)cc2)n1	i
Fc1ccc(-c2nc3n(n2)Cc2ccccc2-3)cc1	i
COC(=O)c1c(N)n(-c2cccc(C(=O)O)c2)c2nc3ccccc3nc12	i
Cc1occc1C(=O)Nc1cccc([N+](=O)[O-])c1	i
CCC(C(=O)N1CCN(c2ncccn2)CC1)c1ccccc1 (stereo not given)	i
Cc1ccc(SCc2nnc(NC(=O)c3cccs3)s2)cc1	i
CCC(C)c1ccccc1OCC(=O)Nc1cccc(C#N)c1 (stereo not given)	i
O=C(NNC(=O)c1cccnc1)Nc1cccc(Cl)c1Cl	0.2%
COc1cccc(C2C(C(=O)c3ccc(C)o3)=C(O)C(=O)N2CCCN(C)C)c1 (stereo not given)	i
COCc1nnc(NC(=O)CSc2ccccc2)s1	i
O=C(NCCCc1ccccc1)Nc1ccccc1	i

Assay outcomes deposited in PubChem BioAssay by Southern Research Institute.
